Screening results (PubChem)
Rango complex inh = Rango-importin beta binding inhibition; Rango CFP/YFP FRET sensor + importin beta, 45 min; 340,000 tested, 0.031% active; Potency, µM (top dose mostly 92.2 µM), for the others: at the highest dose inhibition of complex formation; Q14974; active = rising FRET ratio curve, often small or poorly fitted; inconclusive = mostly compound fluorescence or quenching in the first reads; inactive = flat curves in all reads;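 also: potency is read from the fitted curve at half-maximal effect; 0% = DMSO wells and 100% = buffer wells lacking importin beta; nearly all actives have a fitted effect of over 15% in size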
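FRET biosensor Rango (snurportin 1 IBB between N-terminal EYFP and C-terminal Cerulean), 50 nM in PBS/1 mM DTT/0.02% Tween-20/0.1% BSA, preincubated 5 min RT with compound; 0.125 microM importin beta added, 45 min RT, CFP/YFP FRET ratio read.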
Rango dissoc inh = inhibitors of RanGTP-induced Rango-importin beta complex dissociation. O95149+P62826. Biochemical FRET Rango-importin beta, RanGTP-induced dissociation. Potency, µM (highest dose often 46.1 µM), for the others: top-dose activity change, negative = inhibition. 340,000 tested, 0.071% active; active means falling FRET ratio curve, often poorly fitted, with flat reads before Ran was added; inconclusive means other falling curves, or compound fluorescence or quenching; inactive means flat or rising ratio curve;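 also: potency is read from the fitted curve at half-maximal effect; % of control where 0% means no effect; nearly all actives have a fitted effect of over 45% in size; -100% = wells without RanGTP and RCC1; the record marks most hits as doubtful in a second field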
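Quantitative HTS using a FRET biosensor: 0.1 uM Rango, 0.25 uM importin beta, 0.6 uM Ran, 2 mM GTP, 0.2 uM RCC1 final, PBS with DTT, Tween-20 and BSA. Post-read taken 45 min after Ran addition.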
miR-21 reporter = raises the signal of a miR-21 reporter; HeLa miR-21 FLuc reporter, luciferase, 48 h; Potency, µM (highest dose often 38.3 µM), for inactives: at the top dose reporter change, positive = more light; 340,000 tested, under 10 active; AID 2288; active = well fitted rising curve with a large enough effect; inconclusive = small, poorly fitted or top-dose-only effect; inactive = no such curve, though single readings can be large or run the other way;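 also: % of control where 0% means no effect; miR-21 action dims this reporter so a rising signal means less miR-21 action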
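Luminescence from a firefly luciferase reporter carrying a miR-21 binding site downstream, stably expressed under a CMV promoter in HeLa cells that make miR-21 endogenously, reports miRNA modulation after 48 h compound exposure up to approximately 40uM final.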
GLA inh pH 4.5 = inhibitors of human alpha-galactosidase A at pH 4.5. 230,000 tested, under 10 active. activity change, negative = inhibition, % at 105 µM. purified enzyme, 4-MU-alpha-Gal fluorescence, pH 4.5; inconclusive = small, poorly fitted or top-dose-only inhibition, or a rising curve; inactive = flat fitted curve, though single readings scatter; no compound was filed as active;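 also: 0% = full activity with enzyme and -100% = basal without enzyme; dose as in the result columns while the protocol names 77 µM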
Target sequence (P06280 whole entry, looked up): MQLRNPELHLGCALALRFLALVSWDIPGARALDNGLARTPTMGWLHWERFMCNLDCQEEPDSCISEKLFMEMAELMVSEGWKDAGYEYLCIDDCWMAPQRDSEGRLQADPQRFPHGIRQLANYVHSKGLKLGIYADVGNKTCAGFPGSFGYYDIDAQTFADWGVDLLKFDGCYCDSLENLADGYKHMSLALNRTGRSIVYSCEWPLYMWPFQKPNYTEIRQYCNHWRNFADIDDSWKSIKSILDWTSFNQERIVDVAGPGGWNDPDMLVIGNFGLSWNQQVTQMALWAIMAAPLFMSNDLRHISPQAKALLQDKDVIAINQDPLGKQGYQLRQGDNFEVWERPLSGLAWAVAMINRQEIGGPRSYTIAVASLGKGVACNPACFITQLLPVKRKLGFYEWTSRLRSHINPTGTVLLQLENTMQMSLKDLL
Starred values were filed as active, the others as inactive; ? = inconclusive; nt = not tested or not shown. Not all compounds are listed. The share of hits here may be higher or lower than overall.

Rango complex inh	Rango dissoc inh	miR-21 reporter	GLA inh pH 4.5	SMILES
2.6%	14%	-15%	-15	CC1=NN(C(N)=S)C(=O)C1N=Nc1ccc(O)cc1 (stereo not given)
3.9%	-5%	?	nt	O=C(CSc1ccccn1)Nc1nonc1[N+](=O)[O-]
-1.8%	-2%	-7%	0	O=C(CCC(=O)NNC(=O)Nc1cccc(Cl)c1)NCc1ccccc1
0.5%	0%	-3%	-3	CCn1cc(S(=O)(=O)CC(=O)NC2CCCCC2)c2ccccc21
2.8%	1%	-55%	8	CCC1(c2ccc(Cl)cc2)NC(=S)N(c2ccc(C)cc2)N1 (stereo not given)
1.9%	3%	nt	nt	O=C(NCCCN1CCOCC1)c1onc(CSc2ccc(F)c(F)c2)c1C(=O)NCCCN1CCOCC1
-0.1%	1%	-3%	-5	Cc1ccnc(NC(=O)CCC(=O)N(CC(=O)NCC2CCCO2)Cc2ccc(F)cc2)c1 (stereo not given)
0.1%	0%	-12%	-9	c1cncc(-c2nn3c(Cn4nnc5ccccc54)nnc3s2)c1
-3.9%	23%	-21%	-13	CC1(C)Cc2c(c(-c3ccco3)nc3sc4c(NCCN5CCOCC5)ncnc4c23)CO1
-3.7%	-1%	nt	nt	O=C(COC(=O)/C=C/c1ccc(OC(F)F)cc1)NC1CCCCCCC1
-1.4%	1%	-11%	-20	COc1ccc(-c2noc(CSc3nc4ccccc4c(=O)n3-c3ccccc3)n2)cc1OC
-0.4%	-9%	-1%	0	COc1cccc(/C=N\n2c(C)nnc2C)c1OC
-0.6%	0%	3%	2	O=C(CN1C(=O)C2C3C=CC(C3)C2C1=O)Nc1nncs1 (stereo not given)
0.0%	4%	-2%	5	O=C(Nc1ccccc1)NC(Cc1ccc(O)cc1)C(=O)O (stereo not given)
-2.7%	2%	5%	nt	CC(=O)c1ccc(NS(=O)(=O)c2cc3c(cc2C)N(C(C)=O)CCO3)cc1
3.2%	6%	-54%	-9	COCCNC(=O)c1cc2sc3ccccc3c2s1
0.2%	-9%	0%	-3	COc1ccc(Br)cc1/C=N/NC(=O)c1cccc(S(=O)(=O)N2CCOCC2)c1
-5.1%	1%	-53%	-2	O=C(Nc1ccc2sccc2c1)c1ccc(Cl)s1
-1.3%	11%	-5%	-16	Cc1c(NC(=O)CN2CCN(c3ccccc3)CC2)c(=O)n(-c2ccccc2)n1C
?	3%	-12%	nt	O=C(c1ccco1)N1CCCC(c2nc3c(nnn3Cc3ccc(Cl)cc3Cl)c(=O)[nH]2)C1 (stereo not given)
-2.8%	4%	nt	nt	O=C(Nc1ccc(OC(F)F)cc1)c1cc(S(=O)(=O)N2CCOCC2)ccc1N1CCCC1
2.4%	-15%	nt	nt	Cc1ccc(Nc2ncc3c(=O)[nH][nH]c(=O)c3n2)cc1
?	-3%	-2%	-1	Nc1ccc(C(=O)N2CCCC2)cc1
-0.9%	1%	-3%	nt	Cc1c(NCc2ccncc2)cccc1C(=O)O
0.3%	-11%	-3%	-12	CC(NC(=O)c1ccncc1)C(C)(C)C (stereo not given)
?	?	-13%	nt	COc1cccc2[nH]c3ccccc3c(=O)c12
1.5%	-5%	1%	nt	Cn1c(=O)n(CCO)c(=O)c2c1nc(Br)n2Cc1ccccc1
-2.8%	-12%	1%	-1	CSc1nncn1/N=C/c1cc(Cl)ccc1F
4.4%	-4%	-11%	4	Cc1cccc(NCc2ccccc2OCc2ccccc2F)c1
0.4%	-1%	-16%	-14	COc1ccc(OC)c(-c2c(C#N)c(N)nc3c2c(=O)nc2sccn23)c1
-2.6%	-10%	-13%	6	COCCNC(=O)c1cc(-c2ccc(Cl)c(Cl)c2)on1
-1.1%	-4%	nt	nt	CC(=NNC(=O)c1ccncc1)c1cccc(Br)c1
-2.9%	-5%	-12%	5	C=CCNc1nc(C)c(C(C)=O)cc1C#N
-2.0%	9%	-3%	-2	Cc1ccc(OCC(=O)Nc2cc(S(=O)(=O)N3CCCCC3)ccc2C)c([N+](=O)[O-])n1
-4.1%	15%	-4%	nt	Cc1cccc(CS(=O)(=O)Cc2ccc(C(=O)NC3CCCCCC3)o2)c1
0.2%	-1%	-3%	1	O=C(CCNC(=O)c1ccccc1Cl)Nc1cc(C(F)(F)F)ccc1Cl
0.8%	8%	-5%	2	CCSCCNC(=O)c1cncc(Br)c1
-0.1%	0%	2%	10	O=C(O)CN1C(=O)SC(Nc2ccc(Cl)cc2)C1=O (stereo not given)
-3.7%	-3%	-1%	nt	Cc1cc(OCC(=O)NNC(=O)CCc2ccccc2)ccc1Br
7.8%	6%	-3%	-7	COc1cccc(C(=O)COc2cccc(NC(=O)c3ccco3)c2)c1
-3.4%	-15%	-6%	5	c1ccc(N2CCN(Cc3ccsc3)CC2)nc1
-2.6%	-10%	nt	nt	O=C(NCCC(=O)N1CCN(c2ccccn2)CC1)c1ccc([N+](=O)[O-])cc1
-0.1%	-1%	-1%	-5	O=C(NC1CCCCCC1)C(=S)NCCc1ccccc1
-0.7%	-1%	19%	2	COc1ccc(O)c(/C=N\NC(=O)CCn2nnc3ccccc32)c1
1.3%	32%	2%	-15	Oc1ccc(-c2[nH]ncc2-c2cnn(-c3ccccc3)c2)c(O)c1
?	-15%	-3%	-7	C/C(=N\O)C1/C(=N/O)CC2C1C2(C)C (stereo not given)
?	-11%	-8%	4	O=C(CN1CCN(c2ccc(F)cc2)CC1)Nc1ccc(-n2cnnn2)cc1
1.2%	0%	13%	-1	O=C(c1cccc(NS(=O)(=O)c2ccc(F)c(F)c2)c1)N1CCN(C(c2ccccc2)c2ccccc2)CC1
-6.2%	1%	nt	nt	CC(=O)N(Cc1ccccc1)C1CC(=O)N(Cc2ccccc2)C1=O (stereo not given)
-4.4%	9%	1%	1	CCCOc1ccc(NC(N)=O)cc1OCCC
-6.7%	-11%	4%	0	O=C(NCc1nnc(SCC(=O)N2CCCc3ccccc32)o1)c1c(F)cccc1Cl
5.3%	3%	13%	-27	O=C(NCc1nnc2c3ccccc3c(-c3ccccc3)nn12)c1ccccc1Cl
-1.1%	15%	-4%	-11	CCOC(=O)CCC(NC(=O)CCCCCCCCC(=O)NC(CCC(=O)OCC)C(=O)OCC)C(=O)OCC (stereo not given)
3.6%	-2%	-6%	-3	CC(C)c1nccn1S(=O)(=O)c1cc(Cl)ccc1Cl
-2.4%	1%	-5%	5	CCN1CCc2c(C#N)c(N3CCOCC3)nc(N3CCOCC3)c2C1
10%	10%	0%	2	Cc1[nH][nH]c(=O)c1C=NCc1cccs1
?	?	-39%	nt	CCOc1ccc2[nH]c3ncccc3c(=O)c2c1
?	-6%	-28%	5	COc1ccc(-c2ccc(CCC(=O)O)o2)cc1
1.0%	-4%	nt	nt	COc1ccc(CNC(=O)c2cccc(S(=O)(=O)N3CCCCC3)c2)cc1OC
3.2%	-2%	-2%	-9	O=C(COC(=O)c1cccc2ccccc12)Nc1ncc(C(F)(F)F)cc1Cl

Entries of single compounds as entered above. Screens in order: Rango complex inh | Rango dissoc inh | miR-21 reporter | GLA inh pH 4.5
CCOc1ccc2[nH]c3ncccc3c(=O)c2c1 as listed: ? | ? | -39% | nt
O=C(NCc1nnc(SCC(=O)N2CCCc3ccccc32)o1)c1c(F)cccc1Cl as listed: -6.7% | -11% | 4% | 0
CCSCCNC(=O)c1cncc(Br)c1 as listed: 0.8% | 8% | -5% | 2
Cc1ccc(OCC(=O)Nc2cc(S(=O)(=O)N3CCCCC3)ccc2C)c([N+](=O)[O-])n1 as listed: -2.0% | 9% | -3% | -2

Continued.
Rango complex inh	Rango dissoc inh	miR-21 reporter	GLA inh pH 4.5	SMILES
1.3%	19%	-13%	nt	COc1ccc(NC(=O)c2cc(S(=O)(=O)N3CCc4ccccc43)cn2C)cc1
0.9%	0%	-1%	2	CCC(=O)Oc1ccc(C(=O)Nc2ccccc2C(=O)NCC(C)C)cc1
1.1%	-10%	-30%	-15	COc1cccc(NC(=O)c2ccc(NC(=O)C(C)(C)C)cc2)c1
3.6%	-6%	nt	-5	O=C1C[C@@H]2CCN3C(=O)CCC[C@@H]([C@H]23)[C@@H]1Cc1ccccc1
1.4%	12%	-7%	nt	CCC1=Nc2cc(C(=O)NCCN3CCOCC3)ccc2Sc2ccccc21
0.2%	24%	-1%	8	Cc1ccc(Nc2nc3ccccc3c(=O)s2)cc1C
-1.2%	-12%	-3%	5	CCOc1ccc(NC(=O)C2CCCN(S(=O)(=O)c3cccc4nsnc34)C2)cc1 (stereo not given)
-1.7%	-5%	4%	7	COc1ccc(-c2noc(CCCC(=O)N3CCOCC3)n2)cc1
-3.2%	3%	-7%	-8	COc1ccc(/C=N/NC(=O)c2nc(-c3ccccc3)n(-c3ccccc3)n2)cc1
-2.0%	-1%	0%	-7	Cc1ccc2[nH]c(=O)c(CN(CCCN(C)C)C(=S)NCCc3ccccc3)cc2c1
1.4%	-4%	-28%	-6	O=c1c2ccccc2nc(COc2ccccc2)n1/N=C/c1ccc(O)c(O)c1
?	1%	-5%	1	COc1ccc(CNC(=O)COC(=O)CC2CC3CCC2C3)cc1OC (stereo not given)
-0.5%	2%	-13%	2	NS(=O)(=O)c1cc(C(=O)NCCc2ccccn2)ccc1Cl
0.6%	-14%	nt	nt	O=C(NCCc1ccccc1)C1CCN(C(=O)Nc2ccccc2)CC1
0.3%	-6%	?	3	O=C(CCl)N=c1sccn1Cc1cccc2ccccc12
-5.1%	1%	nt	nt	Cc1cc(C)nc(NC(=O)c2c(F)c(F)c(F)c(C(=O)Nc3cc(C)cc(C)n3)c2F)c1
-1.3%	-2%	0%	11	O=C(NCc1cccnc1)c1ccc(-c2cc3ccccc3oc2=O)cc1
2.3%	6%	0%	3	COc1ccc(C(=O)C2CCCN(C(=O)CCC3=NNC(=O)CC3)C2)c(C)c1 (stereo not given)
1.6%	-10%	6%	nt	CCS(=O)(=O)c1nc(S(=O)(=O)c2ccc(Cl)cc2)c(N2CCOCC2)s1
-0.5%	-7%	8%	-5	CC(=O)CCc1oc2ccc(NC(C)=O)cc2c1-c1ccc(C)o1
3.8%	2%	nt	nt	Nc1c(C(=O)CSc2nc(-c3ccccc3)cs2)c(=O)[nH]c(=O)n1C1CC1
3.0%	15%	-3%	-4	CCOC(=O)C1=C(C)N(c2ccccc2)C(=O)C1CC(=O)O (stereo not given)
5.4%	?	-7%	-10	Cc1ccc(NC(=S)N(C)Cc2cn(C)c3ccccc23)cc1
0.2%	-1%	nt	nt	O=C1CC(C(=O)N2CCN(c3ccccc3Cl)CC2)CN1Cc1ccccc1 (stereo not given)
-0.1%	6%	0%	nt	O=C(CC(c1ccccc1)c1cc(Br)ccc1O)NCCCN1CCOCC1 (stereo not given)
-2.6%	0%	15%	7	COc1ccc(NS(=O)(=O)c2cc(NC(=O)[C@@H](NC(N)=O)C(C)C)ccc2C)cc1
1.5%	1%	-19%	8	CN(C)C(=O)CSc1ncnc2scc(-c3ccccc3)c12
-0.6%	0%	0%	-29	CCN(C(=O)COC(=O)c1ccccc1Nc1cccc(C)c1C)C1CCS(=O)(=O)C1 (stereo not given)
-1.7%	1%	nt	nt	COc1ccc(OCCOc2ccc(N(C)S(=O)(=O)c3ccccc3)cc2)cc1
-7.8%	-22%	-3%	7	CCCN(CC1CC1)c1nc(N)c2c(N)nc(OC)cc2c1C#N

Look-ups from above:
In Rango dissoc inh, COc1ccc(NS(=O)(=O)c2cc(NC(=O)[C@@H](NC(N)=O)C(C)C)ccc2C)cc1 reads 0%
In miR-21 reporter, COc1cccc(/C=N\n2c(C)nnc2C)c1OC reads -1%

Other results follow.
Rango complex inh	Rango dissoc inh	miR-21 reporter	GLA inh pH 4.5	SMILES
-2.4%	3%	-12%	5	C/C(=N\NC(=O)c1c(Cl)cnn1C)c1cccc(NC(=O)C(C)C)c1
-0.6%	9%	-1%	-4	CCC(C)C(=O)Nc1cc(Cl)ccc1C(=O)O (stereo not given)
?	?	-6%	1	CCc1cc2ccccc2nc1SCC(=O)Nc1cc(OC)c(OC)cc1C(=O)O
0.3%	9%	10%	nt	CCOC(=O)C1CCN(S(=O)(=O)c2ccc3c(c2)N(C(C)=O)CCO3)CC1
